Screening data: PubChem, National Center for Advancing Translational Sciences (NCATS)
D2 PAM = potentiates the human D2 dopamine receptor allosterically. P14416. DiscoveRx D2 beta-arrestin cells, luminescence, 90 min; 100% = 57 uM dopamine signal. potentiation, % (concentration not given with the values). 360,000 compounds, 0.23% hits; active = potentiation of 50% or more; inconclusive = 30% to 50%; inactive = 30% or less;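 note: tested on top of an EC20 dose of dopamine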
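D2 cells co-treated with compound plus 50 nM dopamine (EC20) for 90 min at 37 deg C to detect potentiation. Beta-arrestin recruitment was read as enzyme-fragment luminescence after 1 h at ambient temperature. Full response was set by 57 uM dopamine.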
Six1-Eya2 blk = blocks human Six1 binding to Eya2; Q15475+O00167; AlphaScreen GST-Six1/His-Eya2 binding, biochemical; stronger effect = lower value; control for the full effect not named in the record; activity change, % (concentration not given with the values); 360,000 compounds, 0.56% hits; in the data active = activity change below about -65%; inconclusive = about -30% to -65%; inactive = above about -30%; note: % is set by controls: 0 for no effect and ±100 for the full control effect
Target sequence (O00167 whole entry, looked up): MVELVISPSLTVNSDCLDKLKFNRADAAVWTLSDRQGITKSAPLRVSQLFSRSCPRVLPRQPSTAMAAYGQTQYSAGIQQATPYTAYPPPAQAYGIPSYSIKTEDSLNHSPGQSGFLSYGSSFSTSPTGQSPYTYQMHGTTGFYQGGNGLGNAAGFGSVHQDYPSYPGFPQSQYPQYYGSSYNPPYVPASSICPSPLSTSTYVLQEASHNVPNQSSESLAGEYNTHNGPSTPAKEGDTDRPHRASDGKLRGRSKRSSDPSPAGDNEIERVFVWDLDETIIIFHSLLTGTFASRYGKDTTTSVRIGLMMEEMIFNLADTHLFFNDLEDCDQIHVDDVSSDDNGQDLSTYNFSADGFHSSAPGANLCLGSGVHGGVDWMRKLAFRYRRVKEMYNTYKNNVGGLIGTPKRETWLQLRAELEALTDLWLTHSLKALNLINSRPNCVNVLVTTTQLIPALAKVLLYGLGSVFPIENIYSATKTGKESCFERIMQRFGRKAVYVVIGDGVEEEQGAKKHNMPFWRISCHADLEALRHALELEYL
Target sequence (Q15475 whole entry, looked up): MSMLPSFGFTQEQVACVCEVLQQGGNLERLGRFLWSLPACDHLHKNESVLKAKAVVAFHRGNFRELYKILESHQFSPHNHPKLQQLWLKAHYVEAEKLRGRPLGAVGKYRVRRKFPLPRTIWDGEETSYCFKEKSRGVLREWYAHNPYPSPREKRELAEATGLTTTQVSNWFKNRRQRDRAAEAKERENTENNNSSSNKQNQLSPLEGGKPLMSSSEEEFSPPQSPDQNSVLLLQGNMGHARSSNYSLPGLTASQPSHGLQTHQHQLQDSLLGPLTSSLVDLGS
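AlphaScreen with GST-Six1 and His-Eya2 (5X mix: 250 nM and 500 nM), glutathione donor and nickel acceptor beads; buffer 50 mM Tris pH 8.0, 300 mM NaCl, 1 mM TCEP; 1 h at 37 C in the dark.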
CtBP-E1A inh = CtBP/E1A binding inhibition | AlphaScreen GST-E1A/His-CtBP binding, 1536-well; stronger effect = lower value; control for the full effect not named in the record | activity change, % (no concentration beside the values) | 340,000 compounds, 0.49% hits | AID 651724; in the data active means activity change below about -65%; inconclusive means about -30% to -65%; inactive means above about -30%; note: % is set by controls: 0 for no effect and ±100 for the full control effect
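AlphaScreen with 125 nM GST-E1A and 125 nM His-CtBP (5X stocks) in Tris pH 8.0, 300 mM NaCl, BSA, Tween 20, TCEP. Compounds preincubated 2 h at 37 deg C, then glutathione donor/nickel acceptor beads added for 1 h at 37 deg C in dark.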
gsp agonist = gsp mutant agonism; 340,000 compounds, 0.13% hits; Potency, µM (top dose mostly 76.9 µM), inactives show top-dose activation (cAMP increase), actives largely listed as activators; AID 624287; gsp mutant cells, cAMP HTRF, 30 min; control for the full effect not named in the record; active = well fitted activation curve with a large enough effect; inconclusive = small, poorly fitted or top-dose-only effect, or another doubt; inactive = no such curve, though single readings can be large or run the other way; cell line not stated here;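 note: phosphodiesterase inhibitor Ro 20-1724 added with compounds to block cAMP breakdown; potency is the fitted concentration of half-maximal effect; nearly all actives have a fitted effect of over 60% in size; about a fifth of the inactives were tested at one dose only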
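Cells stably selected in G418 were plated at 2000/well, grown 16-24 hr, then given compounds in DMSO with the PDE inhibitor […] (300 uM solution added) for 30 min at 37C; cAMP was read by HTRF.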
D2 ag = human D2 receptor agonism in beta-arrestin assay. activation, % (test concentration not listed). DiscoveRx PathHunter D2 beta-arrestin, luminescence, 90 min; 100% = 57 uM dopamine signal. P14416. 360,000 compounds, 0.084% hits; in the data active = activation above about 40%; inconclusive = about 15% to 40%; inactive = below about 15%; note: compound concentration not given in the record; the text of the record calls up to 30% inactive
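Agonist mode: compounds alone added to overnight-plated D2 PathHunter cells for 90 min at 37 C, with 57 uM final dopamine (EC100) defining full response. Beta-arrestin recruitment detected by chemiluminescent reagent, read after 1 h at ambient temperature.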
gsp antag = gsp mutant antagonism. AID 624288. gsp-mutant cells, cAMP HTRF, 30 min; control for the full effect not named in the record. 340,000 compounds, 0.4% hits. Potency, µM (top dose mostly 76.9 µM), without a hit: at the highest dose activity change, negative = inhibition, most hits filed as inhibitors; active = falling curve of any shape with a large fitted effect; inconclusive = falling curve, mostly with a smaller effect; inactive = flat or rising curve; cell line not stated here;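 note: intracellular cAMP measured with PDE inhibitor Ro 20-1724 present during compound exposure; potency is the fitted concentration of half-maximal effect; % is set by controls: 0 for no effect and ±100 for the full control effect; nearly all actives have a fitted effect of over 65% in size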
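Cells in G418 medium, seeded 16-24 h, 37C; buffer exchange to DPBS + 1 mM CaCl2, 0.5 mM MgCl2, 0.05% BSA; cpds in DMSO + […] (300 uM stock), 30 min 37C; HTRF cAMP detection.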
The depositor's hits bear a star; ? = inconclusive; nt = no result given; [ ] = remark or other dose.

SMILES,D2 PAM,Six1-Eya2 blk,CtBP-E1A inh,gsp agonist,D2 ag,gsp antag
COC(=O)C1=C(C)N(C)C(C)=C(C(=O)OC)C1c1ccccc1C,-8,-2,6,-2%,-3.7,9%
COc1cccc(CNC(=O)CN2C(=O)CCSc3ccc(S(=O)(=O)N4CCCC4)cc32)c1,-9,4,0,?,0.5,-7%
CCCCC(=O)NCCNC(=O)c1cc(OCC(F)(F)F)ccc1OCC(F)(F)F,-12,-1,2,-1%,-2.7,14%
COc1ccc(N2CCN(S(=O)(=O)CCNS(=O)(=O)c3ccccc3)CC2)cc1,4,-1,2,8%,-0.2,3%
CC(=O)N/C(=C\c1ccccc1)C(=O)OCc1ccccc1,-11,2,2,5%,-0.4,9%
C/C(=N\Nc1nc(Nc2ccccc2)nc(N2CCOCC2)n1)c1cccs1,1,-5,0,-4%,-1.9,-17%
Cc1cc(C)n(-c2nc3ccccc3n3c(C)nnc23)n1,-2,-4,-4,-1%[15.4 µM],-1.0,-1%
O=C(Cc1n[nH]c(=O)[nH]c1=O)N/N=C/c1cccc(O)c1,-11,-2,2,?,-3.8,13%
CSc1nc(C)cc(C)c1C#N,-16,0,6,-12%,2.5,-3%
COc1ccc(S(=O)(=O)N2CCOCC2)cc1NC(=O)CSc1nnc(C2CC2)n1N,-12,1,nt,10%,0.7,4%
Cc1ccccc1CN(CC(=O)Nc1cccc([N+](=O)[O-])c1)S(=O)(=O)c1ccc(Cl)cc1,-23,-9,-14,-6%,-2.0,-21%
O=C1CC2(CCCC2)CC(=O)N1c1ccccc1,-3,0,4,-24%,-0.9,8%
Cc1ccc(/C=N/NC(=O)c2nnn(-c3nonc3N)c2CSc2ccc(Cl)cc2)cc1,-2,5,nt,-28%,2.7,-12%
Cc1cccc(NC(=O)CSc2ccc(C(N)=O)cc2[N+](=O)[O-])c1C,-21,-10,-22,-31%[inhibitor],-2.4,13%
CN1CCN(c2ccc(S(=O)(=O)N3CCCCC3)cc2NC(=O)/C=C/c2ccc(Cl)c([N+](=O)[O-])c2)CC1,-18,-26,-14,-1%[15.4 µM],-1.3,-25%
COc1cc(/C=N\NC(=O)OC(C)(C)C)ccc1OC(=O)c1ccco1,-3,-1,-1,-13%[15.4 µM],0.8,6%
Cc1ccc(S(=O)(=O)N(CC(=O)O)Cc2ccccc2)cc1,-10,2,6,0%,-3.6,-11%
C/[N+]([O-])=C/c1c(OCc2ccc(Cl)cc2Cl)ccc2ccccc12,-6,-1,0,-8%[15.4 µM],-1.9,1%
Cn1c(CNC(=O)c2ccco2)nnc1SCC(=O)c1ccccc1,-6,-4,8,28%[15.4 µM],-3.6,1%
Cc1ccnc(SCC(=O)Nc2oc(-c3ccccc3)c(-c3ccccc3)c2C#N)n1,-8,3,-6,2%,0.4,-12%
C[C@@H]1CN([C@H](C)CO)C(=O)Cc2cc(NC(=O)Nc3ccccc3)ccc2O[C@@H]1CN(C)Cc1ccc2c(c1)OCO2,-27,-18,?,2%,-1.6,?
Cc1cccc(NC(=O)CCC(=O)OCC(=O)c2ccc(Oc3ccc([N+](=O)[O-])cc3)cc2)c1,-12,4,-3,-5%[15.4 µM],-3.6,-10%
Cn1nc(C(C)(C)C)cc1C(=O)N1CCCCC1c1cc(C(=O)NCc2ccc(F)cc2)no1 (stereo not given),-9,4,0,nt,7.4,nt
N#Cc1cccc2c1-c1ccccc1/C2=N/NC(N)=S,-10,?,-24,2%[15.4 µM],-7.9,-10%
Clc1ccc(OCc2nnc(-c3ccccc3Br)o2)c(Cl)c1,1,7,5,5%,0.4,10%
Cc1ccc(S(=O)(=O)c2c(C)cc(C)nc2Oc2cccc(C)c2C)cc1,2,11,8,-12%,-3.4,-6%[15.4 µM]
COc1ccc(-c2ccc(-c3nc4c(c(=O)[nH]c(=O)n4Cc4ccccc4)n3C)o2)c([N+](=O)[O-])c1,-1,-18,2,-1%[15.4 µM],0.8,-13%
Cc1nc(NC2CCCCC2)c2nnn(Cc3ccccc3Cl)c2n1,-3,6,-22,17%,-2.3,-13%
Cc1c(Cl)cccc1NS(=O)(=O)c1c(C(=O)N2CCOCC2)c(C)n(C)c1C,-3,-3,-10,6%,-2.4,12%
O=c1[nH]c(-c2ccccc2F)nc2c1sc(=S)n2Cc1ccccc1,-5,14,nt,-62%[inhibitor],-3.0,-5%
Cc1cccc(NC(=O)COC(=O)Cc2cccc(C(F)(F)F)c2)c1C,-3,8,12,?,-1.5,9%
CC(=O)c1ccc(N=Nc2c(C)[nH]n(-c3ccccc3)c2=O)cc1,-9,?,nt,27%,-0.7,-1%
COc1ccccc1C#CC1=CC(=O)CC(C)(C)C1,nt,-4,-2,?,-0.4,nt
CC1(C(=O)O)CCCN1C(=O)c1cccc(OC(F)(F)F)c1 (stereo not given),-5,5,12,nt,-6.9,nt
CN1CCN(S(=O)(=O)c2ccc(N3CCN(C(=O)c4ccccc4)CC3)nc2)CC1,-6,7,6,-8%,-2.8,-9%
COC(=O)c1sc(S(=O)(=O)N2CCN(c3ccc(OC)cc3)CC2)c(C(=O)OC)c1C,-3,-19,-16,-4%,-3.0,-15%
COc1cc(-c2nc(C(=O)NC3CCN(Cc4ccccc4)CC3)cc3c2[nH]c2ccccc23)cc(OC)c1OC,-90,-10,-22,nt,-5.9,-13%
Nn1c(SCc2cccc(F)c2)nnc1-c1cccnc1,-1,9,0,13%[15.4 µM],-2.2,14%
O=C(CNC1CCCCC1)NN=C(c1ccccc1)c1ccccc1,-8,1,4,16%[15.4 µM],-4.5,-5%
Cc1ccc(NC(=O)CN2C(=O)NC(C)(C3CC3)C2=O)cc1S(=O)(=O)N1CCCCC1 (stereo not given),5,-5,-3,-1%,0.2,8%
CCOC(=O)c1sc(NC(=O)CSc2nnc(-c3ccco3)o2)c(C(=O)OCC)c1C,-2,7,5,6%,-0.8,-16%
Cc1nc(C(=O)Nc2ccc(Cl)cc2)sc1C1(C)CC(c2ccccc2)=NO1 (stereo not given),-5,5,5,nt,2.2,2%
CC1(C)CCC/C(=C\c2ccccc2)C1=O,-4,7,7,nt,-4.0,6%
NCCC1CCCC(CCN)N1 (stereo not given),2,-1,6,nt,-5.3,9%
O=c1c(OC2OC(CO)C(O)C(O)C2OC2OC(CO)C(O)C(O)C2O)c(-c2ccc(O)cc2)oc2cc(O)cc(O)c12 (stereo not given),2,-5,-2,nt,2.0,7%
O=C(NCc1cn(-c2ccccc2)nc1-c1ccc(F)cc1)c1cccc([N+](=O)[O-])c1,-12,-6,-20,18%[15.4 µM],-5.3,-9%
COc1cc(CCN=Cc2cc(Cl)cc(Cl)c2O)c([N+](=O)[O-])cc1OC,-10,-5,-4,nt,-4.2,nt
CN1CCN(NC(=O)/C=C/c2cccc([N+](=O)[O-])c2)CC1,-8,10,-6,1%,-3.9,9%
COc1ccccc1C(=O)Nc1ccnn1C1CCN(C2CCCCC2)CC1,-22,8,-18,-64%[inhibitor],-2.3,nt
COc1ccc(C(=O)Nc2cccc3nc(C)ccc23)cc1OC,-1,5,-14,-40%[inhibitor],-1.2,6%

(next part)
SMILES,D2 PAM,Six1-Eya2 blk,CtBP-E1A inh,gsp agonist,D2 ag,gsp antag
FC(F)C(F)(F)C(F)(F)C(F)(F)c1cc(-c2ccccc2)n[nH]1,-1,10,11,1%,7.1,-10%
c1ccc(Sc2cccc3ccccc23)c(CNC2=NCCN2)c1,-26,7,-15,1%,-3.2,10%
COc1ccc(NC(=O)/C(C#N)=C/c2ccc[nH]2)c(OC)c1,-1,1,3,-1%,5.3,4%
Cn1ccnc1SCC(=O)Nc1ccccc1,-22,6,0,-2%,-1.3,18%
O=C(NCc1ccc(Cl)cc1)c1cc(S(=O)(=O)N2CCCCC2)c[nH]1,-8,-8,1,13%,3.1,7%
CC(=O)N1C[C@@H](CO)[C@@H](N(C)C(=O)C2CCCCC2)C[C@H]1c1ccccc1,-8,13,-19,nt,-5.7,nt
COC(=O)C(CC(C(=O)OC)C(=O)OC)C(=O)OC,-10,-1,8,9%,0.3,0%
CCCc1nnc(NC(=O)c2cc(OC)cc(OC)c2)s1,-5,2,6,-1%,-0.4,-13%
CC(=O)c1ccc(-c2cnc3c(NC=O)cc(-c4ccc(C(=O)NC5CC5)cc4)cn23)cc1,26,?,-22,nt,?,nt
O=C(NCCCn1ccnc1)c1ccc(Br)cc1,-11,15,-4,27%[15.4 µM],-1.0,-2%
CCn1c(Cc2ccccc2)nnc1SCc1cccc(C(=O)O)c1,-23,5,-9,0%,-3.7,9%
COCCCNC(=O)COc1ccc(Cl)c(C)c1,-3,7,-16,4%,-1.8,11%
O=C(Nc1ccccc1)Nn1cnnc1,-1,3,5,10%[15.4 µM],5.0,19%
Cc1nnc(NC(=O)c2ccc(-c3cccc(C(F)(F)F)c3)o2)s1,12,12,-7,17%,3.8,12%
C[C@@H]1CN([C@@H](C)CO)C(=O)c2cc(Br)cnc2O[C@H]1CN(C)C(=O)c1ccncc1,nt,2,5,?,1.4,nt
O=c1c2ccccc2n(Cc2cccc(F)c2)c(=O)n1C1CCCC1,-20,6,10,21%,-1.3,1%[15.4 µM]
Cc1ccc(-c2nnc3c4ccccc4c(C)nn23)cc1S(=O)(=O)N1CCN(CCO)CC1,-6,?,?,?,-2.9,9%
O=C(COC(=O)CN1C(=O)c2ccccc2C1=O)Nc1ccccc1C(F)(F)F,-12,1,-29,-46%[inhibitor],-1.9,nt
